WNV NS2B-NS3 inh – blocks West Nile virus NS2B-NS3 protease activity | 0.18% of 65,000 active | P06935 | AID 577 | WNV NS2B-NS3 protease, fluorogenic substrate Ex360/Em465; stronger effect = lower value | z-score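 (tested at a level between 10 and 100 µM)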;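 active means z-score at -3 or under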;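 further: score is relative to mean and spread of the compound wells of a plate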
Target sequence (P06935 1371-1501 limits assumed): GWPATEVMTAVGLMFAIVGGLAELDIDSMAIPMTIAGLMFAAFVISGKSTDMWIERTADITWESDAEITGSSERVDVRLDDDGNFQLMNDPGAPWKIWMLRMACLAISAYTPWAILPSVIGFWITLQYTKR
Target sequence (P06935 1502-1679 limits assumed): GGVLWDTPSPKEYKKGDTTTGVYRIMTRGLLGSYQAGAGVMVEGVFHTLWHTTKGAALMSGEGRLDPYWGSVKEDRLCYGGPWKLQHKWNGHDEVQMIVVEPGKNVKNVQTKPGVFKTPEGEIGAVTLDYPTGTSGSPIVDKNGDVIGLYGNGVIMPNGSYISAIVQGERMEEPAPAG
Hsc70 – small molecules displacing fluorescent ligand from Hsc70 – biochemical, fluorescence polarization, primary screen (AID 568); displacement, % at 20 µM, or IC50 in µM where a hit was titrated; 83,000 tested, under 10 active; Hsc70 fluorescence polarization, probe displacement; higher % means a stronger effect; strong numbers were not always called active;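 active means displacement above 50% without optical interference and an IC50 on retest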;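 further: ATPase domain with a fluorescein-tagged ATP probe; 0% = vehicle and 100% = excess ADP; read after one hour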
MT1-MMP reporter – MT1-MMP gene expression reporter suppression – cell-based, luciferase reporter, luminescence (AID 618). 0.62% of 87,000 active. MT1-MMP promoter luciferase reporter cells, luminescence. calls from a first round at 10 µM; hits with a dose series show EC50 in µM;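 active means over half of the reporter light lost at 10 µM or EC50 under 50 µM; inactive means the rest and hits that failed the dose series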;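 further: actives suppress MT1-MMP promoter-driven transcription so potencies describe inhibitors; HT1080 fibrosarcoma cells; overnight exposure; toxic or luciferase-blocking compounds were not removed from the actives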
* hit, by the source's call; i = inactive; . = no result given; + = active, no number; & = joins results of further samples.

SMILES | WNV NS2B-NS3 inh | Hsc70 | MT1-MMP reporter
CCOC(=O)c1ccc(NC(=O)CSC2=NC(=O)C(CC)C(=O)N2)cc1 (centres undefined) | 1.1 | 1.8% | i
CC(=O)Nc1cc2c(cc1Br)OCCO2 | 0.79 | -3.2% | i
CCOc1ccc(OCC)c(C2C(C#N)=C(N)N(c3cccnc3)C3=C2C(=O)CC(C)(C)C3)c1 (centres undefined) | -0.72 | -3.4% | i
CCC(=O)N1CCN(c2ccc(Cl)cc2NC(=O)c2ccc3c(c2)OCCO3)CC1 | 2.7 | -0.2% | i
CN(C)C(=O)N1CCC(C(=O)NCc2ccc(F)cc2)CC1 | -0.21 | 1.2% | i
c1cncc(-c2nc(NCC3COc4ccccc4O3)c3ccccc3n2)c1 (centres undefined) | . | -0.2% | i
Cc1[nH]c2ccc(-c3nnc(SCC(=O)c4ccc(F)cc4)o3)cc2c1C | -1.4 | -2.6% | i
CC1=C(C(=O)N(C)C)C(c2ccc(Cl)c(Cl)c2)NC(=O)N1 (centres undefined) | -0.29 | 3.8% | i
CC(=O)c1cc(C#N)c(SCCC(C)C)nc1C | 0.79 | -1.4% | i
CN(C)C(=O)COC(=O)c1cc(Cl)cc(Cl)c1N | . | -0.5% | i
O=[N+]([O-])c1cc(Cl)ccc1Sc1cccc2cccnc12 | . | 5.1% | i
O=C(CSc1nc2c(c(=O)n1-c1ccc(Cl)cc1)SCC2)NCc1ccco1 | -0.38 | -7.0% | i
Clc1ccc(-c2nnc(SCc3ccon3)o2)c(Cl)c1 | -0.55 | 2.4% | +
O=C1CSC(c2ccccc2)N1CC12CC3CC(CC(O)(C3)C1)C2 (centres undefined) | 1.4 | -1.9% | i
Cn1c2c(c(=O)n(C)c1=O)C(NC(=O)c1cccs1)(C(F)(F)F)C(=O)N2 (centres undefined) | 0.04 | 2.0% | i
CCOC(=O)Cc1nnc(NC(=O)C(CC)Sc2nc(C)cc(=O)[nH]2)s1 (centres undefined) | -0.29 | 5.1% | i
CCC(C)NC(=O)c1cc(-c2ccc(OC)cc2)on1 (centres undefined) | 1.1 | -0.1% | i
COc1ccccc1NS(=O)(=O)c1cccc(C(=O)NN)c1 | . | -3.2% | i
COc1cc(NC(=O)CSc2nc3ccccc3c(=O)n2C)ccc1NC(=O)c1ccco1 | 0.22 | -4.3% | i
Cn1cc(-c2nnc(-c3ccccc3)o2)c2ccccc21 | . | -5.1% | i
COc1cc2cc(CN(Cc3nnnn3Cc3ccco3)C3CCCCC3)c(=O)[nH]c2cc1OC | -0.62 | -0.7% | i
Clc1ccc2c(c1)C(N1CCNCC1)=Nc1ccccc1O2 | 0.1 | 3.9% | i
Cc1c(NC(=O)c2ccc(Br)o2)cccc1C(=O)O | . | 3.3% | i
Cc1occc1C(=O)NC(C)c1ccc2c(c1)OCO2 (centres undefined) | -0.32 | 4.0% | i
CCOC(=O)c1cc2sccc2n1Cc1ccc(C#N)cc1 | 0.29 | -7.7% | i
SMILES | WNV NS2B-NS3 inh | Hsc70 | MT1-MMP reporter
Cc1cc(C)n(-c2nc3c(c(=O)[nH]c(=O)n3C)n2C)n1 | 0.83 | 5.2% | i
COc1ccccc1-n1cnnc1SCC(=O)Nc1ncc(Cl)cc1Cl | 0.82 | -0.6% | i
CCOC(=O)C1C(=O)CC(C)(O)C(C(=O)OCC)C1c1cccc(OC)c1 (centres undefined) | -0.26 | -2.4% | i
Cc1c2c(nc3c(C(=O)NC4CCCCC4C)cnn13)CCCC2 (centres undefined) | -0.25 | 4.6% | i
CCC1CCCCN1C(=O)CSc1nnc(-c2ccc(Cl)cc2)o1 (centres undefined) | 0.006 | 0.1% | i
CC(OC(=O)c1cc2sccc2n1C)C(=O)NCc1cccs1 (centres undefined) | 1.3 | -7.6% | i
CN1C(=S)SC(/[N+]([O-])=C\c2ccccc2)C1(C)C (centres undefined) | . | -1.5% | i
CS(=O)(=O)N(CCc1ccccc1)CC(=O)N1CCc2ccccc2C1 | -0.81 | -2.7% | i
CCc1cc(C(=O)NNC(=S)Nc2cc(C)ccc2C)cs1 | . | 3.4% | i
Cc1cc(C(F)F)n2ncc(C(=O)N3CCC(C(N)=O)CC3)c2n1 | . | 5.1% | i
O=C(C1CCCCC1)N1CCN=C1SCc1cccnc1 | -0.35 | 0.0% | i
COc1ccc(N(CN2C(=O)C3C4C=CC(C4)C3C2=O)C(=O)c2ccco2)cc1 (centres undefined) | -0.09 | 1.9% | i
Nc1cccc(-n2nncc2-c2ccccc2)c1 | -0.98 | -1.0% | i
NC(=O)C1=NOC(CNc2ncc(C(F)(F)F)cc2Cl)C1 (centres undefined) | . | 4.6% | i
COc1ccc(Cn2nnnc2C(C(C)C)N2CCc3ccccc32)cc1 (centres undefined) | 1.6 | -2.7% | i
COc1ccccc1S(=O)Cc1ccc(C(=O)O)o1 (centres undefined) | 1.1 | 4.3% | i
CC1(C)Cc2ccccc2-c2nnc(-c3cccnc3)n21 | 0.18 | -0.7% | i
O=C(c1cccs1)N(C(=O)c1cccs1)c1ccc(Br)cn1 | . | -5.7% | i
Cc1cccc(NC(=S)NNC(=O)c2csc(C(C)C)c2)c1 | . | -0.7% | i
COc1ccccc1OCCSc1nc(N)cc(N)n1 | . | -3.1% | i
Cc1ccc(C)c(-n2c(SCC(=O)N3CCCC3)nnc2-c2ccccn2)c1 | 0.2 | -3.6% | i
O=C(NCCN1CCN(C(=O)NC2CCCCC2)CC1)NC1CCCCC1 | 0.33 | -8.3% | i
O=C(NC1=NCCS1)C1CC(=O)N(c2ccccc2)C1 (centres undefined) | 1.7 | 0.3% | i
FC(F)(F)c1cc(-c2ccco2)nc(-n2cnc3ccccc32)n1 | -0.61 | -14% | i
COCCNC(=O)c1ccc(CS(=O)(=O)c2ccc(Cl)cc2)o1 | 0.38 | -8.7% | i

Only Hsc70, for six of the compounds above:
Molecule	Hsc70
Cc1cc(C)n(-c2nc3c(c(=O)[nH]c(=O)n3C)n2C)n1	5.2%
COc1ccccc1-n1cnnc1SCC(=O)Nc1ncc(Cl)cc1Cl	-0.6%
CCOC(=O)C1C(=O)CC(C)(O)C(C(=O)OCC)C1c1cccc(OC)c1 (centres undefined)	-2.4%
Cc1c2c(nc3c(C(=O)NC4CCCCC4C)cnn13)CCCC2 (centres undefined)	4.6%
CCC1CCCCN1C(=O)CSc1nnc(-c2ccc(Cl)cc2)o1 (centres undefined)	0.1%
CC(OC(=O)c1cc2sccc2n1C)C(=O)NCc1cccs1 (centres undefined)	-7.6%

(next part)
SMILES | WNV NS2B-NS3 inh | Hsc70 | MT1-MMP reporter
O=C(CN1CCCCCC1)N1c2ccccc2C=Cc2ccccc21 | . | 7.8% | i
Nc1nc(CSc2nnc(-c3cccc(F)c3)n2-c2ccccc2)nc(N2CCOCC2)n1 | -0.66 | -1.3% | i
O=C1c2ccccc2CC1Sc1nnc(-c2ccccn2)o1 (centres undefined) | -1.2 | 5.2% | i
COCc1cc(C)nc(SCC(=O)Nc2cc3c(cc2C#N)OCO3)c1C#N | 0.3 | 1.7% | i
CCCN(CCC)S(=O)(=O)c1ccc(NC(=O)COc2ccccc2)cc1 | . | -2.8% | i
Cc1cc(S(=O)(=O)N2CCCC2)ccc1OCC(=O)NCc1ccco1 | 0.02 | -2.4% | i
Cn1c(SCC(=O)Nc2ccc(NC(=O)c3cccs3)cc2)nnc1-c1ccncc1 | . | 0.8% | i
Cc1nnc(NC(=O)c2c(-c3ccccc3)noc2C)s1 | . | 2.7% | i
O=S(=O)(NC1CCc2ccccc21)c1ccc(S(=O)(=O)N2CCCC2)cc1 (centres undefined) | 0.97 | 2.2% | i
CCOc1ccc(C(=S)N2CCOCC2)cc1 | 1.8 | 4.8% | i
CC1CCc2nn(CC(=O)NC3CCCC3)cc2C1 (centres undefined) | -0.62 | 2.2% | i
COC(=O)c1ccccc1NS(=O)(=O)c1cn(C)c(=O)n(C)c1=O | -0.66 | 5.4% | i
O=C(Nc1ccc(Br)cn1)c1ccc2nccnc2c1 | 0.52 | 0.8% | i
Cc1ccc(C(=O)NCCSC(C)(C)C)cc1 | . | -0.4% | i
CC1=CC(C)(C)N(S(=O)(=O)c2ccc(F)cc2)c2ccc(C)cc21 | . | -3.1% | i
COc1cccc(C(=O)NCC(=O)n2nc(C)cc2C)c1 | 0.09 | -4.9% | i
CCCCCOC(=O)CC(C(=O)OCCCCC)N1CCCCC1 (centres undefined) | . | -1.8% | i
Cc1cccc2c(-c3ccccc3)cc(=O)[nH]c12 | . | -0.7% | i
O=c1oc(-c2cccs2)nc2c1cnn2-c1ccccc1 | 0.15 | 3.2% | i
COc1cc(OC)cc(OCC(O)Cn2cnc3cc(C)c(C)cc32)c1 (centres undefined) | 0.36 | 3.1% | i
CCOC(=O)C(C(=O)Nc1ccccc1C)C1CCCCC1 (centres undefined) | . | -13% | i
CCOC(=O)C1CCCN(CCCc2ccccc2)C1 (centres undefined) | -0.29&-0.17 | 3.2%&3.3% | i
CCOc1ccc(S(=O)(=O)Nc2ccccc2SC)c2cccnc12 | 1.1 | 1.1% | i
CCOc1ccc(N(C(=O)Cn2nnc3ccccc32)C(C(=O)NC(C)(C)CC)c2cccn2C)cc1 (centres undefined) | . | 3.1% | i
Clc1cccc(-c2nc3nc4ccccc4nc3n2Cc2ccco2)c1 | -1.8 | 6.8% | i

Reformatted with two lines to a compound: 5 of the compounds above
Below each SMILES: WNV NS2B-NS3 inh | Hsc70 | MT1-MMP reporter
CCCN(CCC)S(=O)(=O)c1ccc(NC(=O)COc2ccccc2)cc1
  . | -2.8% | i
Cc1cc(S(=O)(=O)N2CCCC2)ccc1OCC(=O)NCc1ccco1
  0.02 | -2.4% | i
Cn1c(SCC(=O)Nc2ccc(NC(=O)c3cccs3)cc2)nnc1-c1ccncc1
  . | 0.8% | i
Cc1nnc(NC(=O)c2c(-c3ccccc3)noc2C)s1
  . | 2.7% | i
O=S(=O)(NC1CCc2ccccc21)c1ccc(S(=O)(=O)N2CCCC2)cc1 (centres undefined)
  0.97 | 2.2% | i

(list continues)
SMILES | WNV NS2B-NS3 inh | Hsc70 | MT1-MMP reporter
CCN1CCN(C(c2cccs2)C(C)NC(=O)c2ccccc2F)CC1 (centres undefined) | -0.88 | -3.0% | i
CC(=O)c1cccc(NC(=O)COc2ccc(S(=O)(=O)N3CCCCC3)cc2)c1 | -0.41 | 5.9% | i
CSc1ccccc1-n1nnnc1SCc1ccccc1 | 0.14 | 6.5% | i
Cc1cccc(N(CC(=O)NC2CCCC2)C(=O)c2c(C)noc2C)c1 | . | 0.8% | i
Cc1ccc(C(=O)CSc2nn3c(=O)c(C(C)(C)C)nnc3s2)cc1 | . | 3.5% | i
O=C(Nc1cnccn1)c1ccncc1 | 0.32 | -6.6% | i
Cc1ccc(-n2nc(C)c3c2OC(N)=C(C#N)C3c2cccs2)cc1 (centres undefined) | -1.9 | 1.1% | i
Cn1cc(/C=N/n2cnc3sc4c(c3c2=O)CCCC4)c2ccccc21 | 1.5 | -1.9% | i
Cc1nc(NC(=O)C2CCCCC2)sc1C | . | 3.4% | i
CC(=O)CCc1ccc(OCCCCn2cncn2)cc1 | -0.35 | -6.5% | i
CCCCCOC(=O)C1C2C=CC3(CN(c4ccccc4C)C(=O)C13)O2 (centres undefined) | 3 | -2.5% | i
COc1ccc(S(=O)(=O)Nc2c3ccccc3nc(=O)n2-c2ccccc2)cc1 | . | 4.6% | i
CSc1cccc(NC(=O)C(C)Sc2ccc(C)cc2)c1 (centres undefined) | . | 2.1% | i
O=S1(=O)N=C(Oc2ccccc2)c2ccccc21 | -0.52 | 2.5% | i
Cc1[nH]c(=O)[nH]c(=O)c1CSc1nnc([C@@H](NC(=O)OC(C)(C)C)C(C)C)o1 | 0.22 | 7.6% | i
CN(C)c1ccc(P(=O)(OCc2ccccc2)C(O)c2ccncc2)cc1 (centres undefined) | -0.03 | -0.1% | i
CN1CCC(OC(=O)c2cccc(Br)c2)CC1 | . | -2.1% | i
CCOC(=O)CCc1c(C)c2ccc(OC(C)C(=O)OCC)c(C)c2oc1=O (centres undefined) | 0.65 | 6.1% | i
O=C(CSC1=NCCS1)NC1CCCCC1 | 1.6 | -3.6% | i
O=c1nc2c(-c3ccccc3F)n[nH]n2c2ccccc12 | -0.31 | -0.7% | i
COc1ccccc1C(=O)Nc1c2c(nn1-c1cccc(C)c1C)CS(=O)C2 (centres undefined) | 0.04 | 0.1% | i
C=CCSc1nnc(-c2cnn(-c3ccccc3)c2-n2cccc2)n1C | . | -3.4% | i
O=C(CSc1ncccc1-c1nc2ccccc2[nH]1)NCc1ccco1 | -1.2 | 1.0% | i
CC(/C=N/n1cnnc1)=C\c1ccco1 | -0.006 | -5.2% | i
O=C(CSc1ncnc2c1oc1ccccc12)NC1CCCCC1 | -0.89 | 2.2% | i
SMILES | WNV NS2B-NS3 inh | Hsc70 | MT1-MMP reporter
COc1ccc(-n2nnnc2S(=O)(=O)CC(=O)N2CCCCC2)cc1 | 0.16 | 1.4% | +
CN(C)/C=C(\C(=O)c1ccc(Cl)cc1)c1nnnn1-c1ccc(Cl)cc1 | . | 3.0% | i
CCCCN(CCCC)C(=O)c1nsnc1-c1ccccc1O | . | 4.5% | i
CCOC(=O)CN1C2=NCCN2c2ccccc21 | -0.21 | -3.6% | i
O=C(NCc1ccccc1)C1CCCN1S(=O)(=O)c1cccc2cccnc12 (centres undefined) | 0.23 | -0.3% | i
Cc1cc(S(=O)(=O)N2CCN(Cc3ccccc3)CC2)c(C)s1 | -0.59 | 4.1% | i
